Screening results (PubChem)
Sfp inh = qHTS Assay for Inhibitors of Bacillus subtilis Sfp phosphopantetheinyl transferase (PPTase); Potency, µM, without a hit: max response, negative = inhibition, most hits filed as inhibitors; AID 1490, 2009; 310,000 tested, 3.5% active; Biochemical Sfp PPTase activity, qHTS; 4'-phosphopantetheinyl transferase ffp (Bacillus subtilis), Q9F4F7; active = well fitted inhibition curve with a large enough effect; inconclusive = small, poorly fitted or top-dose-only effect, or another doubt; inactive = no such curve, though single readings can be large or run the other way;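 note: the enzyme is Sfp with the accession as filed and its product quenches rhodamine fluorescence; potency is the fitted concentration of half-maximal effect; 0% = enzyme reaction without inhibitor and -100% = no enzyme wells; top concentration of the series not given in the record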
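Buffer: 50 mM Hepes-Na pH 7.6, 10 mM MgCl2, 0.01% Nonidet P-40, 0.01% BSA. Enzyme 15 nM, pre-exposed to compound 15 min; substrates then added and fluorescence change tracked over 30 min.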
Menin MLL FP FL = qHTS Assay for Inhibitors Targeting the Menin-MLL Interaction in MLL Related Leukemias: Competition With Fluorescein Labeled MLL-derived Peptide. Fluorescence polarization, fluorescein-MLL peptide displacement from menin. FP activity change, % at 61.4 µM. 290,000 tested, under 10 active. AID 1766, 2009; inconclusive = falling polarisation curve, or a change in total fluorescence; inactive = total fluorescence flat and polarisation flat or rising; no compound was filed as active; the % refers to the polarisation; negative = inhibition;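 note: % of control where 0% means no effect; inhibitors lower the polarisation; unlabelled MLL peptide was the positive control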
gsp ag = qHTS for Agonist of gsp, the Etiologic Mutation Responsible for Fibrous Dysplasia/McCune-Albright Syndrome: qHTS. gsp mutant cells, cAMP HTRF, 30 min; control for the full effect not named in the record. Potency, µM (series often up to 76.9 µM), for inactives: at the highest dose activation (cAMP increase), most hits filed as activators. 340,000 tested, 0.13% active; active = well fitted activation curve with a large enough effect; inconclusive = small, poorly fitted or top-dose-only effect, or another doubt; inactive = no such curve, though single readings can be large or run the other way; cell line not stated here;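 note: phosphodiesterase inhibitor Ro 20-1724 added with compounds to block cAMP breakdown; potency is the fitted concentration of half-maximal effect; nearly all actives have a fitted effect of over 60% in size; about a fifth of the inactives were tested at one dose only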
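Cells stably selected in G418 were plated at 2000/well, grown 16-24 hr, then given compounds in DMSO with the PDE inhibitor […] (300 uM solution added) for 30 min at 37C; cAMP was read by HTRF.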
ClpP mod = qHTS Assay for Activators of ClpP. purified B. subtilis ClpP, FRET peptide cleavage, 20 min. Potency, µM (series often up to 57.5 µM), inactives show at the top dose activity change, negative = active. AID 651965, 2013. 340,000 tested, 1.9% active; active = well fitted falling curve with a large enough effect; inconclusive = small, poorly fitted or top-dose-only effect; inactive = no such curve, though single readings can be large or run the other way; note: potency is the fitted concentration of half-maximal effect; the source files actives as falling curves though it sought activators and does not explain the sign; nearly all actives have a fitted effect of over 65% in size; many hits overshoot -100%
Target sequence (P80244 whole entry, looked up): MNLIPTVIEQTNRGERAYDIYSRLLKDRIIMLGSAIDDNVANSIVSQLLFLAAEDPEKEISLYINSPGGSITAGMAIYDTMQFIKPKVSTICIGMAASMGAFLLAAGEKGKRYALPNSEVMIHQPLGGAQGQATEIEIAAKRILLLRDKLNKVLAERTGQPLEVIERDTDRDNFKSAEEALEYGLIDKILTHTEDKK
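Buffer: 100 mM Tris/HCl pH8, 100 mM KCl, 0.05% low protease BSA, 2.5% glycerol, 0.01% Tween-20. ClpP 10 microg/mL final; 20 min RT; delta FRET normalized to ADEP and DMSO controls.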
PINK1 expr mod = A Quantitative High throughput Screen to Identify Chemical Modulators of PINK1 Expression; AID 624263, 2012; Potency, µM (top dose mostly 76.6 µM), for inactives: top-dose activation (PINK1 increase), hits mostly activators; PINK1 immunofluorescence, high-content cytometry, 24 h; 410,000 tested, 0.2% active; active = well fitted activation curve with a large enough effect; inconclusive = small, poorly fitted or top-dose-only effect; inactive = flat fitted curve, though single readings scatter; cell line not stated here;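 note: potency is the fitted concentration of half-maximal effect; % of control where 0% means no effect; nearly all actives have a fitted effect of over 65% in size; a mitochondrial uncoupler was the plate control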
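Stable cell line treated 24 h with compounds at 5 concentrations (CCCP controls), then fixed and immunostained for PINK1 plus nuclear and cell stains; PINK1 immunofluorescence quantified by laser-scanning microplate cytometry.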
gsp antag = qHTS for Antagonists of gsp, the Etiologic Mutation Responsible for Fibrous Dysplasia/McCune-Albright Syndrome: qHTS; AID 624288, 2012; Potency, µM (titrated, usually from 76.9 µM), for inactives: at the top dose activity change, negative = inhibition, usual class: inhibitors; gsp-mutant cells, cAMP HTRF, 30 min; control for the full effect not named in the record; 340,000 tested, 0.4% active; active = falling curve of any shape with a large fitted effect; inconclusive = falling curve, mostly with a smaller effect; inactive = flat or rising curve; cell line not stated here;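 note: intracellular cAMP measured with PDE inhibitor Ro 20-1724 present during compound exposure; potency is the fitted concentration of half-maximal effect; % is set by controls: 0 for no effect and ±100 for the full control effect; nearly all actives have a fitted effect of over 65% in size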
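Cells, 2000/well, grown 16–24 h in DMEM 10% FBS with 0.5 mg/ml G418, then compounds plus […] (300 uM addition stock), 30 min at 37C. cAMP read by HTRF (cAMP-d2 and anti-cAMP antibody-K in lysis buffer) after 30 min RT.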
D2 agonist = Beta-Arrestin HTS for Positive Allosteric Modulators of the Human D2 Dopamine Receptor: Agonists | DiscoveRx PathHunter D2 beta-arrestin, luminescence, 90 min; 100% = 57 uM dopamine signal | activation, % (test concentration not listed) | 360,000 tested, 0.084% active | AID 624465, 2012; in the data active = activation above about 40%; inconclusive = about 15% to 40%; inactive = below about 15%; note: compound concentration not given in the record; the text of the record calls up to 30% inactive
Target sequence (P14416 whole entry, looked up): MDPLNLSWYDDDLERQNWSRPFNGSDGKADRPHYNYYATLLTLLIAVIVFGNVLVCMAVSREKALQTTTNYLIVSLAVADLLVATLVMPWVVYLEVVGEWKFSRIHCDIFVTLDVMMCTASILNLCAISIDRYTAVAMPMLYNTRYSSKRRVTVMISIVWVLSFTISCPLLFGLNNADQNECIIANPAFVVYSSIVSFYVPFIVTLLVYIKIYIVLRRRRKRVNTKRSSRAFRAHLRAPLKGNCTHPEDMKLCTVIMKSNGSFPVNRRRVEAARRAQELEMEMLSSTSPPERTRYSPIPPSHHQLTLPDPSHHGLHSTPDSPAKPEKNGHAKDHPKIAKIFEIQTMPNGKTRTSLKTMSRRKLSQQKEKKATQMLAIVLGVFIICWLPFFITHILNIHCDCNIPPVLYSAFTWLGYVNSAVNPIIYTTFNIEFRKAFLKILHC
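Agonist mode: compounds alone added to overnight-plated D2 PathHunter cells for 90 min at 37 C, with 57 uM final dopamine (EC100) defining full response. Beta-arrestin recruitment detected by chemiluminescent reagent, read after 1 h at ambient temperature.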
* marks the source's active call; other numbers are inactive results; u = inconclusive; x = no result given; [ ] = another dose, or the depositor's remark.

compound	Sfp inh	Menin MLL FP FL	gsp ag	ClpP mod	PINK1 expr mod	gsp antag	D2 agonist
COc1ccc(NC(=O)C2CCCN(S(=O)(=O)c3ccc4[nH]c(=O)ccc4c3)C2)cc1 (stereo unspecified)	25%	0.3	u	-9.9%	10%	7%	-2.3
NS(=O)(=O)c1cccc(NC(=O)CCS(=O)(=O)c2ccc(Cl)cc2)c1	6%	-0.1	-14%	-3.4%	1.4%	3%	5.9
O=C(Nc1ccon1)c1ccc(Br)o1	-1%	3.4	20%	-0.4%	15%[38.3 µM]	3%	-0.8
Cc1cc(C)cc(N(C(=O)c2cccs2)C2C=CS(=O)(=O)C2)c1 (stereo unspecified)	5%	-0.8	-10%[15.4 µM]	x	-1.0%	-10%	1.2
CCCCc1ccc(-c2csc(/C(C#N)=C\c3ccc(C)o3)n2)cc1	-10%	u	-33%[inhibitor]	0.0%	20%[38.3 µM]	10%	-3.5
O=CN1CCCN(Cc2nc(-c3cccc(Cl)c3)no2)CC1	7%	-5.1	-19%	-0.4%	0.9%	9%	-2.0
Cc1ccc(C(=O)NCCn2cc(SCC(=O)Nc3cc(C)on3)c3ccccc32)cc1	3%	-0.4	1%	0.6%	-0.4%	u	4.5
O=C(CN1C(=O)/C(=C/c2cccc(Br)c2)SC1=S)NCCCN1CCOCC1	-21%	x	5%	-1.5%	3.0%	-10%	-0.7
COc1cc(NC(=S)NCCCN2CCOCC2)cc(OC)c1	-4%	-0.6	-2%	-0.9%	-0.3%	11%	-3.0
COc1ccc(C)cc1S(=O)(=O)N1CCCC(C(=O)N2CCOCC2)C1 (stereo unspecified)	10%	-4.7	-4%	0.1%	3.1%	6%	-4.5
CN(CC(=O)Nc1cccc(F)c1)C(=O)CCCNC(=O)c1ccc(Cl)cc1	x	x	-11%[15.4 µM]	x	-1.8%	-4%	-1.6
NS(=O)(=O)c1cccc(NC(=O)CCSc2ccccc2Cl)c1	20%	-0.7	-1%	1.0%	0.9%	-3%	-5.5
Cc1ccccc1/C=C/C(=O)N1CCOCC1	-4%	-0.9	-24%	x	1.0%	2%	-1.2
COc1cccc(CN(C(=O)/C=C/c2ccco2)C2CCS(=O)(=O)C2)c1 (stereo unspecified)	25µM*	-0.3	-5%	-0.2%	-1.2%	-4%	-0.2
Cc1c(CNC(=O)c2cnn3c2NC(c2ccccc2)CC3C(F)(F)F)cnn1C (stereo unspecified)	14%	0.4	15%	-7.4%	x	-5%	-0.4
O=C(Nc1ccc2oc(-c3ccccc3F)nc2c1)c1ccccc1F	5%	-0.3	-53%[inhibitor]	x	6.2%	-23%	4.9
O=C(Nc1ccc2c(c1)C(=O)NC2=O)c1ccccc1	8%	-5.7	26%	5.0%	1.8%	-3%	4.4
CCCn1c(SCC(=O)N2CCCc3ccccc32)nnc1-c1ccco1	17%	-0.7	-26%	1.2%	-0.9%	2%	-3.8
Cc1cccc(S(=O)(=O)N(C)C[C@H]2OCc3cn(nn3)CCCC(=O)N([C@H](C)CO)C[C@@H]2C)c1	x	x	-65%[inhibitor]	-2.0%	-0.3%	x	-2.6
CCCN(/C=N/c1sc2c(c1C#N)CCCCC2)CCC	u	-13	25%	-2.5%	2.1%	u	-3.6

The results go on.
compound	Sfp inh	Menin MLL FP FL	gsp ag	ClpP mod	PINK1 expr mod	gsp antag	D2 agonist
C=Cc1ncc(OC)c2c1[nH]c1ccccc12	x	x	-46%[inhibitor]	4.0%	-1.3%	-3%	-4.6
O=C(O)C1CCN(S(=O)(=O)c2ccc3[nH]ccc3c2)CC1	x	x	-2%	-13%	2.2%	x	-4.9
CN(C)c1ccc(CNC2C3CC4CC(C3)CC2C4)cc1 (stereo unspecified)	-3%	3.9	-40%[inhibitor]	-4.5%	-3.6%[38.3 µM]	2%	-0.2
CCOc1ccccc1NS(=O)(=O)c1cc2c3c(c1)C(C)C(=O)N3CCC2 (stereo unspecified)	3%	x	27%	-1.2%	0.7%	-11%	2.1
O=C(COC(=O)c1cccnc1Cl)Nc1ncc(Cl)cc1Cl	3%	0.1	4%[15.4 µM]	-0.9%	3.7%	-3%	-5.5
CC(C)n1nccc1NC(=O)Nc1ccccc1	3%	8.1	-3%[15.4 µM]	x	0.3%	13%	-2.5
COc1cc(/C=C/c2ccc3cccc(OC)c3n2)c(OC(C)=O)c([N+](=O)[O-])c1	13%	-1.4	2%	0.2%	u	-18%	-9.6
CN(C)CC1CCC/C(=C\c2ccc(OC(=O)c3ccc(Cl)cc3)cc2)C1=O (stereo unspecified)	x	x	6%	-3.0%	-7.2%	7%	-3.5
CCOC(=O)C(CCCCOc1ccc([N+](=O)[O-])cc1)C(=O)OCC	-23%	1.1	1%	0.5%	6.9%[38.3 µM]	u	-2.2
COc1ccc(CN(C)CC(=O)Nc2cccc(S(N)(=O)=O)c2)c(OC)c1OC	u	2.9	-12%	-4.3%	-0.5%	-1%	-8.5
O=C(N/N=C/c1ccc(Cl)cc1)C1CC12CCC2 (stereo unspecified)	8%	-0.2	11%[15.4 µM]	x	1.1%	x	-2.7
COc1ccc(S(=O)(=O)Nc2ccccn2)cc1C	7%	-5.2	1%[15.4 µM]	x	-0.4%	8%	-3.1
CCn1cc(C(=O)NCCCOC)c(=O)c2cc(S(=O)(=O)N(C)C)ccc21	11%	4.8	7%	-1.7%	0.5%	-12%	-0.1
Cc1nc(Nc2cccc(C(C)O)c2)c2nnn(Cc3ccc(F)cc3)c2n1 (stereo unspecified)	15%	0.9	-14%	1.8%	3.3%	1%	4.0
CC1CCN(c2[nH]c(=S)c(C#N)c3c2CCCC3)CC1	32µM*	-2.2	u	0.0%	1.0%[38.3 µM]	11%	-1.0
CC1Cc2nc(SCC(N)=O)n(C)c(=O)c2S1 (stereo unspecified)	7%	3.8	-11%	-0.7%	1.3%	5%	-1.1
O=C(Cc1ccccc1)NCc1ccc2c(c1)OCO2	12%	1.1	2%	1.4%	-2.2%	39%	-6.8
NC(=O)CC(NC(=O)Cc1ccc(Br)cc1)c1ccc(NCCN2CCCCC2)c([N+](=O)[O-])c1 (stereo unspecified)	18%	-9.8	-46%[inhibitor]	1.3%	0.1%	-2%	-2.3
Cc1cc(C(=O)N/N=C/c2cccnc2)c(C)o1	2%	-0.8	-3%	0.2%	0.6%	-3%	-4.0
Cc1cccc(CN2CCN(c3nc4nonc4nc3NC3CC3)CC2)c1	11%	u	14%[15.4 µM]	x	2.8%	-57%	-4.7

Following part
compound	Sfp inh	Menin MLL FP FL	gsp ag	ClpP mod	PINK1 expr mod	gsp antag	D2 agonist
CCOC(=O)Cc1csc(NC(=O)c2cccs2)n1	13%	-0.9	-38%[inhibitor]	1.0%	3.1%[38.3 µM]	-31%	0.1
Cc1ccccc1OCC(=O)NN1Cc2ccccc2C1=N	12%	0.8	-3%	0.7%	-2.0%	13%	-1.7
CC(C)(C)c1[nH]nc2c1C(C1C=CCCC1)C(C#N)=C(N)O2 (stereo unspecified)	25%	0.2	7%	-2.9%	0.7%	-15%	3.6
Cc1cc(=O)[nH]c(SCC(=O)NCCc2ccccc2)n1	-1%	-0.8	4%	-4.4%	-0.3%	-8%	-3.8
COc1ccc(OCCN2CCC(C(=O)NC(c3ccc(Cl)cc3)c3cccnc3)CC2)cc1 (stereo unspecified)	x	x	x	1.1%	10%	x	-4.4
CCc1nc2c(OCc3cccc(OC)c3)cccn2c1N(C)C(=O)C(C)C	x	x	x	-4.3%	0.9%	x	-1.8
C(=C/c1ccnc2nc(SC/C=C/c3ccccc3)nn12)/c1ccccc1	-12%	9.4	-27%	-16%	6.3%[38.3 µM]	-5%	-2.8
COc1ccc(C(=O)N[C@H](C(=O)NCc2ccccc2)C(C)C)cc1	13%	0.3	-25%	x	3.2%	4%	0.6
Cc1csc(NC(=O)c2ccc(C)o2)n1	13%	4.7	-14%	1.2%	0.8%	0%	-0.2
Cc1[nH]c(C)c2c(=O)n(Cc3ccccc3Cl)ncc12	x	x	-1%[15.4 µM]	x	-1.1%	11%	-0.2
COc1ccc(C(=O)O/N=C(\C)c2cnccn2)cc1	13%	-5.1	15%[15.4 µM]	x	5.6%	-7%	1.6
CC(=O)N1CCN(c2ccc(NC(=O)C(C)Oc3ccc(Cl)cc3Cl)cc2)CC1 (stereo unspecified)	15%	-1.2	-5%[15.4 µM]	0.2%	-0.5%	-9%	-0.2
CC(NS(=O)(=O)c1c(N)n(C)c(=O)n(C)c1=O)c1ccccc1 (stereo unspecified)	7%	x	0%[15.4 µM]	1.1%	1.5%	2%	-4.7
Cc1cc(C)cc(OCC(=O)Nc2cccc(-c3nc4ncccc4o3)c2)c1	u	0.5	0%	-16%	7.4%	-17%	-4.6
C=CCn1c(Oc2ccccc2)nc2c1c(=O)n(C)c(=O)n2C	4%	4.1	-6%	x	-2.4%	0%	2.6
COCCN(CCOC)C(=O)COC(=O)c1ccc(Cl)c(S(=O)(=O)N(C)c2ccccc2)c1	14%	0.4	7%[15.4 µM]	x	1.9%	-9%	-2.4
COc1ccc(NC(=O)c2cc(S(=O)(=O)N3CCCCC3)ccc2C)cc1S(=O)(=O)N1CCOCC1	x	x	-12%[15.4 µM]	-0.2%	1.1%	0%	-1.5
Cc1nc(-c2ccc(Cl)cc2)sc1C1(C)CC(c2ccccc2Br)=NO1 (stereo unspecified)	x	x	1%	25µM*	0.7%	4%	2.7
O=[N+]([O-])c1ccc(/C=C/c2ccc3cccc(O)c3n2)cc1	-5%	12	u	0.2%	1.1%	11%	-0.8
C(=C\c1ccco1)/C1=NN(c2ccccc2)C(c2ccco2)C1 (stereo unspecified)	28µM*	u	u	u	u	13%	-7.2
CCc1nnc(NC(=O)c2ccc(S(=O)(=O)N(CC)Cc3ccccc3)cc2)o1	19%	-1.0	-39%	0.4%	1.2%	u	0.5
